DUX4 txn inh – blocks DUX4-driven transcriptional activation. 293T-iDUX4 ZSCAN4-Gaussia luciferase reporter, 24 h; stronger effect = lower value. activity change, negative = inhibition, % (test concentration not listed). actives 0.8% (n = 37,000). AID 1224904;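 active = -10% or lower and over 25 points stronger than a control reporter; inconclusive = -10% or lower with a smaller gap; inactive = above -10%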;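 also: 0% = median of neutral control wells and -100% = median of positive control wells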
DUX4 txn inh difference – also measured in DUX4 txn inh; calls as there; Gaussia minus Italica difference, %; measured here: selective DUX4 reporter inhibition;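 worked out from the two reporters; negative = selective loss of the DUX4 reporter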
DUX4 txn inh control – further read-out of DUX4 txn inh, marked with its call; activity change, negative = inhibition, %; measured here: Italica tet-on control reporter;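 0 = neutral control and -100 = positive control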
* = called active by the depositor; u = inconclusive; x = not tested or not shown. An excerpt. The share of hits here may be higher or lower than overall.

A first look (two entries):
DUX4 txn inh control	DUX4 txn inh difference	DUX4 txn inh	canonical_smiles
-2.6	-4.9	-7.5	CCCN1C[C@@H](C)[C@H](OC)CN(C)C(=O)c2cc(NC(=O)c3ccccc3F)ccc2OC[C@H]1C
x	x	u	O=C(Nc1cccc(F)c1)N1CCCCN2[C@H](CO)[C@@H](c3ccc(C#Cc4cccnc4)cc3)[C@H]2C1

Main list, previewed entries included:
DUX4 txn inh control	DUX4 txn inh difference	DUX4 txn inh	canonical_smiles
-2.6	-4.9	-7.5	CCCN1C[C@@H](C)[C@H](OC)CN(C)C(=O)c2cc(NC(=O)c3ccccc3F)ccc2OC[C@H]1C
x	x	u	O=C(Nc1cccc(F)c1)N1CCCCN2[C@H](CO)[C@@H](c3ccc(C#Cc4cccnc4)cc3)[C@H]2C1
13.5	7.8	21.3	COc1ccc(CN2CC3(CN(C(C)=O)C3)c3c(n(C)c4cc(OC)ccc34)[C@H]2CO)cc1
2.5	-0.3	2.2	CO[C@@H]1CN(C)C(=O)c2cc(NC(=O)C3CCCCC3)ccc2OC[C@@H](C)N(Cc2cccnc2)C[C@H]1C
3.8	7.1	10.9	N#C[C@@H]1[C@H](c2ccccc2-c2cccc(F)c2)[C@@H](CO)N1C(=O)c1cccnc1
-4.5	3.6	-0.9	COc1ccc2c3c(n(C)c2c1)[C@@H](CO)N(Cc1cccnc1)CC31CN(C(=O)c2cccnc2)C1
-2.5	1.8	-0.7	CC=Cc1ccc2n(c1=O)C[C@@H]1[C@@H](CO)[C@H](C(=O)NC3CCC3)N(CCC(F)(F)F)[C@H]21 (mixture of isomers)
-2.1	0.5	-1.6	C[C@@H]1CCCCO[C@H](CN(C)C(=O)CCCN(C)C)[C@H](C)CN([C@@H](C)CO)C(=O)c2cc(NC(=O)c3ccccc3)ccc2O1
-0.8	13.9	13.2	CN1c2ccc(Br)cc2[C@H]2[C@H](CCN2C(=O)Nc2ccccc2F)[C@H]1CO
1.2	5.3	6.5	COCCNC(=O)C[C@H]1C[C@@H]2c3cc(NC(=O)CC4CC4)ccc3O[C@@H]2[C@@H](CO)O1
3.6	-4.8	-1.2	Cc1ccc(S(=O)(=O)Nc2ccc3c(c2)C(=O)N(C)[C@@H]2CC[C@H](CC(=O)NCCc4ccncc4)O[C@H]2CO3)cc1
5.1	-5.9	-0.8	CCCNC(=O)Nc1ccc2c(c1)C(=O)N(C)[C@H]1CC[C@H](CC(=O)Nc3cccc(C)c3)O[C@@H]1CO2
3.2	-0.8	2.4	Cc1noc(C)c1NC(=O)N(C)C[C@@H]1Oc2ccc(NC(=O)Cc3cn(C)c4ccccc34)cc2CC(=O)N([C@H](C)CO)C[C@@H]1C
x	x	u	CN1c2ccc(-c3ccc(F)cc3)cc2[C@H]2[C@H](CCN2S(=O)(=O)c2ccc(F)cc2)[C@H]1CO
-1.2	2.3	1.0	COc1cccc(C(=O)N2C[C@@H]3[C@H](c4ccccc42)[C@@H](CO)N3C(=O)c2ccccc2)c1
-1.9	-2.1	-4.1	N#C[C@H]1[C@@H](c2ccc(-c3ccccc3F)cc2)[C@H](CO)N1C(=O)Cc1ccccc1
-9.6	5.8	-3.7	O=S(=O)(c1ccccc1)N1CCCCN2[C@H](CO)[C@@H](c3ccc(C#CC4CCCC4)cc3)[C@H]2C1
8.5	6.5	15.0	Cn1cnc(S(=O)(=O)N2C[C@@H](O)COC[C@@H]3O[C@@H](CC(=O)NCc4cc(F)cc(F)c4)CC[C@H]32)c1
3.6	-0.4	3.2	CN1C[C@@H]2[C@H](c3ccccc31)[C@@H](CO)N2C(=O)Nc1ccccc1Cl
3.1	7.4	10.5	COc1ccc2c3c([nH]c2c1)[C@H](CO)N(C(=O)C1CC1)CC31CCN(C(=O)NC(C)C)CC1
-3.4	16.5	13.1	CN(C)C(=O)c1ccc(-c2ccc([C@@H]3[C@@H](CO)N4CCCCN(Cc5ccncc5)C[C@H]34)cc2)cc1
11.6	17.7	29.3	COCC#Cc1ccc([C@H]2[C@H]3CN(Cc4cccnc4)CCCCN3[C@H]2CO)cc1
-30.7*	-27.1*	-57.8*	COc1ccc(CN2CC3(C2)CN(Cc2ccc4c(c2)OCO4)[C@H](CO)c2[nH]c4cc(OC)ccc4c23)cc1
-2.4	16.6	14.2	CN1c2ccc(Br)cc2[C@@H]2[C@@H](CCN2C(=O)c2ccc(F)cc2)[C@@H]1CO
-4.7	12.7	7.9	CCCN1C[C@@H](C)[C@H](OC)CN(C)C(=O)c2ccc(NS(=O)(=O)c3cn(C)cn3)cc2OC[C@@H]1C
6.5	-2.5	4.0	O=C(C[C@H]1CC[C@H]2[C@@H](COC[C@@H](O)CN2C(=O)Nc2cc(Cl)cc(Cl)c2)O1)N1CCOCC1
3.5	-5.7	-2.2	C/C=C/c1ccc([C@@H]2[C@H](CO)N(C(=O)C3CC3)C23CN(S(=O)(=O)CC)C3)cc1
5.4	4.0	9.4	CN1CCCCN2[C@H](CO)[C@@H](c3ccc(-c4ccccc4)cc3)[C@@H]2C1
-1.7	-3.4	-5.1	COc1ccc(S(=O)(=O)N2C[C@@H](O)COC[C@@H]3O[C@@H](CC(=O)N[C@H]4CCN(Cc5ccccc5)C4)CC[C@H]32)cc1
0.7	1.8	2.5	CO[C@H]1CN(C)C(=O)c2cc(NC(=O)CC(F)(F)F)ccc2OC[C@H](C)N(C(=O)C2CCCCC2)C[C@@H]1C
0.1	1.0	1.1	COc1ccc(S(=O)(=O)Nc2ccc3c(c2)C(=O)N([C@H](C)CO)C[C@H](C)[C@@H](CN(C)C(=O)CCC(F)(F)F)OCCCC[C@H](C)O3)cc1
-10.6	3.3	-7.4	CO[C@H]1CN(C)C(=O)c2cc(NC(=O)Nc3ccc(Cl)cc3)ccc2OC[C@@H](C)N(C)C[C@@H]1C

3 of the entries above in order of their number in DUX4 txn inh, rising:
DUX4 txn inh control	DUX4 txn inh difference	DUX4 txn inh	canonical_smiles
3.5	-5.7	-2.2	C/C=C/c1ccc([C@@H]2[C@H](CO)N(C(=O)C3CC3)C23CN(S(=O)(=O)CC)C3)cc1
0.1	1.0	1.1	COc1ccc(S(=O)(=O)Nc2ccc3c(c2)C(=O)N([C@H](C)CO)C[C@H](C)[C@@H](CN(C)C(=O)CCC(F)(F)F)OCCCC[C@H](C)O3)cc1
-4.7	12.7	7.9	CCCN1C[C@@H](C)[C@H](OC)CN(C)C(=O)c2ccc(NS(=O)(=O)c3cn(C)cn3)cc2OC[C@@H]1C

(listing goes on)
DUX4 txn inh control	DUX4 txn inh difference	DUX4 txn inh	canonical_smiles
7.0	-0.9	6.1	CCCNC(=O)[C@@H]1[C@@H](CO)[C@@H]2Cn3c(ccc(-c4ccccc4)c3=O)[C@H]1N2C(=O)Nc1ccccc1
-5.5	5.0	-0.5	N#C[C@@H]1[C@@H](c2ccc(/C=C/c3ccccc3)cc2)[C@@H](CO)N1C(=O)C1CCCCC1
9.6	16.7	26.3	O=C(C1CC1)N1CC[C@H]2[C@H](CO)Nc3ccc(Br)cc3[C@H]21
x	x	u	COc1ccc2c3c([nH]c2c1)[C@@H](CO)N(Cc1ccccc1F)CC31CCN(S(C)(=O)=O)CC1
1.7	-11.4	-9.7	CN1c2ccc(Br)cc2[C@@H]2[C@@H](CCN2C(=O)Nc2cccc(F)c2)[C@@H]1CO
x	x	u	COc1cccc(NC(=O)N2CC3(C2)[C@H](c2ccccc2)[C@H](CO)N3C(=O)C2CCCC2)c1
5.6	-3.2	2.5	CCNC(=O)[C@H]1[C@H](CO)[C@H]2Cn3c(ccc(-c4ccccc4)c3=O)[C@H]2N1CC
0.6	-1.3	-0.6	C[C@@H]1CN([C@@H](C)CO)C(=O)Cc2cc(NC(=O)CCC(F)(F)F)ccc2O[C@H]1CN(C)S(=O)(=O)c1ccc(Cl)cc1
-1.6	-4.4	-6.0	COc1cccc(C#Cc2ccc([C@@H]3[C@@H](CO)N4C(=O)CN(C(=O)c5ccccc5)C[C@H]34)cc2)c1
-0.3	2.4	2.0	CC(C)[C@@H]1COCc2cn(nn2)CC[C@H](C)C(=O)N1
3.0	2.4	5.4	CN1CCN(C(=O)C[C@H]2CC[C@H]3[C@@H](COC[C@H](O)CN3C(=O)c3ccc(F)cc3)O2)CC1
2.0	1.1	3.1	O=C(C[C@@H]1C[C@@H]2c3cc(NC(=O)c4ccc5c(c4)OCO5)ccc3O[C@@H]2[C@H](CO)O1)NCc1ccccn1
1.4	-0.8	0.6	C[C@@H]1CCCCO[C@H](CN(C)C(=O)C2CCCCC2)[C@H](C)CN([C@H](C)CO)C(=O)c2cc(NC(=O)c3ccncc3)ccc2O1
x	x	u	O=C(c1cccc(F)c1)N1CC(=O)N2[C@H](C1)[C@H](c1ccc(C#Cc3ccc(F)cc3)cc1)[C@@H]2CO
-0.6	4.5	3.9	O=C(C[C@@H]1CC[C@H]2[C@@H](COC[C@@H](O)CN2C(=O)C2CC2)O1)NCc1ccccc1Cl
-4.9	8.0	3.1	O=C(Nc1ccc(-c2ccccc2)cc1)[C@@H]1[C@@H](CO)[C@@H]2Cn3c(cccc3=O)[C@@H]2N1CC1CCOCC1
4.1	-3.6	0.6	CCCNC(=O)Nc1ccc2c(c1)C(=O)N(C)C[C@H](OC)[C@H](C)CN[C@H](C)CO2
2.1	3.8	5.9	COc1ccc2c3c(n(C)c2c1)[C@H](CO)N(Cc1ccccc1F)CC31CN(C(C)=O)C1
-22.1	23.4	1.4	COc1ccc(C[C@@H]2CCc3cnnn3COCCNC2=O)cc1
1.6	7.2	8.8	O=C(C[C@H]1CC[C@H]2[C@@H](COC[C@H](O)CN2Cc2cccc(F)c2)O1)NCCc1ccncc1
0.6	-2.9	-2.3	CC=Cc1ccc2n(c1=O)C[C@H]1[C@H](CO)[C@@H](C(=O)NCCc3cn(C)cn3)N(C(=O)C3CCCC3)[C@@H]21 (mixture of isomers)
5.8	7.7	13.5	CCCNC(=O)N1CC2(CN(S(C)(=O)=O)C2)c2c(n(C)c3cc(OC)ccc23)[C@@H]1CO
-0.5	1.0	0.5	C[C@@H]1CN([C@@H](C)CO)C(=O)c2cc(NS(=O)(=O)c3ccc(F)cc3)ccc2O[C@@H](C)CCCCO[C@@H]1CN(C)C(=O)c1ccccc1
0.2	-4.0	-3.8	CCN1[C@@H]2Cn3c(ccc(-c4ccncc4)c3=O)[C@H]1[C@@H](C(=O)Nc1ccccc1)[C@@H]2CO
x	x	u	COc1ccc(C#Cc2ccc([C@@H]3[C@H]4CN(C(=O)Nc5ccccc5)CCCCN4[C@H]3CO)cc2)cc1
0.5	4.3	4.8	CC(=O)Nc1ccc2c(c1)C(=O)N(C)[C@@H]1CC[C@H](CC(=O)NCc3ccc(Cl)cc3)O[C@H]1CO2
1.5	-2.0	-0.4	O=C(c1cccc(F)c1)N1C[C@@H]2[C@H](c3ccccc31)[C@H](CO)N2C(=O)c1ccccn1
-0.5	-3.9	-4.4	CN(C)C(=O)C[C@@H]1CC[C@H]2[C@@H](COC[C@@H](O)CN2Cc2ccc(C(F)(F)F)cc2)O1
0.1	3.5	3.6	CC(C)[C@H](C)NC(=O)N(C)C[C@@H]1OCc2ccccc2-c2ccccc2C(=O)N([C@H](C)CO)C[C@@H]1C
-2.2	4.9	2.7	Cc1noc(C)c1NC(=O)Nc1ccc2c(c1)C(=O)N([C@@H](C)CO)C[C@@H](C)[C@H](CN(C)C(=O)NC1CCCCC1)OCCCC[C@@H](C)O2
3.8	1.4	5.2	O=C(c1cccnc1)N1CC2(C1)[C@@H](c1ccccc1)[C@@H](CO)N2Cc1cccnc1
-1.5	0.2	-1.3	COCC(=O)NC[C@@H]1[C@H](c2ccccc2)[C@H](CO)N1C(=O)c1ccccc1
3.1	-6.1	-3.0	O=C(C[C@H]1C[C@@H]2c3cc(NC(=O)Nc4ccc(C(F)(F)F)cc4)ccc3O[C@@H]2[C@@H](CO)O1)NCc1cccnc1
1.8	-3.7	-2.0	Cc1noc(C)c1NC(=O)Nc1ccc2c(c1)CC(=O)N([C@H](C)CO)C[C@H](C)[C@@H](CN(C)S(=O)(=O)c1cccs1)O2
-1.1	-1.2	-2.3	CN1C(=O)c2cc(NC(=O)C3CCOCC3)ccc2OC[C@H]2O[C@@H](CC(=O)NCC3CCCCC3)CC[C@H]21
11.7	-9.3	2.4	COC(=O)C[C@@H]1CC[C@@H]2[C@H](COC[C@@H](O)CN2C(=O)Nc2cccc(F)c2)O1
10.0	-5.0	5.1	N#Cc1cccc(-c2ccc(C3[C@@H]4CN(Cc5cocn5)C[C@H]3N4)cc2)c1 (stereo not given in full)
8.0	8.4	16.4	CN1c2ccc(Br)cc2[C@H]2[C@H](CCN2C(=O)Cc2cccnc2)[C@H]1CO
-2.3	-3.1	-5.4	C/C=C/c1ccc([C@@H]2[C@@H](CNC(=O)CC3CC3)N(C(C)=O)[C@H]2CO)cc1
x	x	u	CC(=O)N1CCCCN2[C@@H](CO)[C@@H](c3ccc(C#Cc4ccccc4F)cc3)[C@@H]2C1
2.4	-7.5	-5.1	CCCN1[C@@H]2c3ccc(C4=CCCCC4)c(=O)n3C[C@H]1[C@H](CO)[C@H]2C(=O)NCC
2.8	-4.4	-1.6	C[C@H]1CN([C@@H](C)CO)S(=O)(=O)c2ccc(-c3ccc(F)cc3)cc2O[C@H]1CN(C)Cc1ccccc1C(=O)O
-9.6	14.8	5.2	CC(C)c1cn(CC[C@@H]2CC[C@@H](NC(=O)c3cccc(F)c3)[C@@H](CO)O2)nn1
-6.2	0.3	-5.9	COc1ccccc1NC(=O)N[C@@H]1CC[C@H](CC(=O)N2CCC(Cc3ccccc3)CC2)O[C@@H]1CO
-0.8	-1.8	-2.6	O=C(NCCN1CCCCC1)[C@@H]1N[C@@H]2c3ccc(-c4ccncc4)c(=O)n3C[C@@H]2[C@H]1CO
2.1	-2.0	0.1	CCCNC(=O)N[C@H]1C=C[C@H](CC(=O)N2CCN(C)CC2)O[C@@H]1CO
